Source: PubChem BioAssay (Johns Hopkins Ion Channel Center)
KCNQ2 block: KCNQ2 potassium channel inhibitors, primary screen, cell-based, CHO-K1, FluxOR thallium flux, B-score (AID 2156); 1.1% of 310,000 active; O88943; B-score at 10 µM; 20 min; stronger effect = lower value; only compounds with negative scores are shown here; some inactives read as strong as hits;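 active = fluorescence ratio B-score at most minus 3 library SDs, with starting brightness B-score within 2 library SDs, cut at about -5.5 in these data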
Target sequence (O88943 whole entry, looked up): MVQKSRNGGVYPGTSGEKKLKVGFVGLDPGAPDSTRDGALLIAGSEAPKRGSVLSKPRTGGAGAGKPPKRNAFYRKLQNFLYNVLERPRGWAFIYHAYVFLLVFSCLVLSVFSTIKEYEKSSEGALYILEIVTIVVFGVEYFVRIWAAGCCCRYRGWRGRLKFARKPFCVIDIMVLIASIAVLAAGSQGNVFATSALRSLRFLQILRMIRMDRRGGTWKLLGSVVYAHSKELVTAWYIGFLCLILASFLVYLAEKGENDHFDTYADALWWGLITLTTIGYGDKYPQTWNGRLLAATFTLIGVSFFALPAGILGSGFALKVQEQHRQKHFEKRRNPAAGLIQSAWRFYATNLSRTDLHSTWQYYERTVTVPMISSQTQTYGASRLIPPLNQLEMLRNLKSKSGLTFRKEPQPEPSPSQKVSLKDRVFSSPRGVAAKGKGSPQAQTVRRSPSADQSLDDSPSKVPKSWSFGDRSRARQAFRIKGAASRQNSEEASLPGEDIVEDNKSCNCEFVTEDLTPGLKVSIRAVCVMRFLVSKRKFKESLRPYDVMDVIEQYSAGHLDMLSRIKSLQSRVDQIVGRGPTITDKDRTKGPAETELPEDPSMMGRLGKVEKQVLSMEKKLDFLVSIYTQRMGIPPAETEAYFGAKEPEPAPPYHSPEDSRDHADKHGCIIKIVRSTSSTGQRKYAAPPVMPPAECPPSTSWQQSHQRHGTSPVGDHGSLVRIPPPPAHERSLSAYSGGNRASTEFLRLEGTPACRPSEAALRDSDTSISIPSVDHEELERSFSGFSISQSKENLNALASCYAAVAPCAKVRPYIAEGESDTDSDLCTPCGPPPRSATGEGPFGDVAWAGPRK
KCNQ2 block baseline: second read-out of KCNQ2 block, no call of its own (marks repeat the call); B-score; measured here: initial fluorescence intensity artifact check;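 brightness before thallium and not channel activity; 0 = typical well and far values either way flag optical interference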
Active calls of the source: *; i = inactive. Only part of the results is shown. The share of hits here may be higher or lower than overall.

SMILES | KCNQ2 block | KCNQ2 block baseline
CCc1ccc(-c2nc(CS(=O)CC(=O)NCc3cccnc3)c(C)o2)cc1 (stereo not given) | i | 0.45
O=C1c2ccc(Br)cc2C(=O)N1c1ccc(Cc2ccncc2)cc1 | i | -0.53
Cc1csc(=O)n1CC(=O)OCC(=O)Nc1cc(S(=O)(=O)N2CCOCC2)ccc1Cl | i | -0.02
COc1ccc(CCN(Cc2cc3cc(C)c(C)cc3nc2Cl)C(=O)C2CC2)cc1 | -6.5* | -0.76*
O=C(CSc1ncn[nH]1)N/N=C/c1ccc(Br)cc1 | i | 2.3
CCc1ccc(-c2cc(C(=O)NN3CCN(C)CC3)c3ccccc3n2)cc1 | i | 0.61
O=C(NCc1n[nH]c(=S)n1-c1ccc(Br)cc1)c1ccc(S(=O)(=O)N2CCOCC2)cc1 | i | -0.54
N#Cc1ccc(N=c2ssnc2Cl)cc1 | i | 0.15
Cc1ccc(C(=O)O)cc1NCc1ccncc1 | i | 0.27
COC(=O)Cc1c(C)c2ccc(OCc3nn[nH]n3)c(C)c2oc1=O | i | -0.02
O=C(Nc1ncccn1)c1ccc([N+](=O)[O-])cc1 | i | -0.95
Cc1c(C(=O)N2CCN(c3ccccn3)CC2)oc2c(F)cccc12 | i | 0.94
CN(C)/C=N/S(=O)(=O)c1ccc(Cl)c(Cl)c1 | i | 2
CCOC(=O)C1=C(C)N(C)C(C)=C(C(=O)OCC)C1c1ccc(C(=O)OC)cc1 | i | -1.8
Cc1ccc(OCCN2C(=O)C(=O)c3cc(C)ccc32)cc1 | i | -0.18
O=C(N/N=C/c1ccc2c(c1)OCO2)C(=O)Nc1ccc2ccccc2c1 | i | 0.67
CCOC(=O)CCNC(=O)N1CCCC(N(C)CCc2ccc(OC)c(OC)c2)C1 (stereo not given) | i | 0.58
CCc1ccc(NSc2ccccc2[N+](=O)[O-])cc1 | i | -1.5
CC1=C(C)CC(C(=O)N2CCN(C/C=C/c3ccccc3)CC2)C(C(=O)O)C1 (stereo not given) | i | -0.02
O=C(C1CCCN(Cc2ccccc2Br)C1)N1CCCCC1 (stereo not given) | i | 0.07
O=C1c2ccccc2NC(c2ccco2)N1O (stereo not given) | i | 2.1
Cc1ccc2c(c1)[nH]c1c(=O)n(CCN3CCNCC3)cnc12 | i | 1.6
COc1ccc(C(C)=O)c(Oc2nc(CN3CCOCC3)nc3scc(-c4cccs4)c23)c1 | i | -0.63
Cc1ccc2nc(N3CCN(c4ccccc4F)CC3)c(C=O)c(=O)n2c1 | i | -1.3
COC(=O)CSc1nc(-c2ccccc2)nc2ccccc12 | i | 2.4
CCc1ccc(-c2cn3nc(C)c(C)nc3n2)cc1 | i | -0.47
COc1ccc(CC(=O)Nc2cc(C)ccc2O)cc1OC | i | -1.7
CC(Sc1nnnn1C)C(=O)NC1CCCc2ccccc21 (stereo not given) | i | 0.08
CCOC(=O)c1c(C)oc2cc(Br)c(OC(C)C(=O)OCC)cc12 (stereo not given) | i | 0.01
Cn1c(SCC(=O)N2CCN(c3cccc(Cl)c3)CC2)nnc1-c1ccncc1 | i | 0.49
COc1cccc(C(c2c(N)n(C)c(=O)n(C)c2=O)C(C)[N+](=O)[O-])c1 (stereo not given) | i | 2.5
OC(c1ccccc1)(c1ccccc1)C1CCN(C(=S)NC2CCCC2)CC1 | i | 0.26
CCCCS(=O)(=O)Nc1ccc(N2CCOCC2)c(S(=O)(=O)N2CCOCC2)c1 | i | -1.6
Cc1cccc2c(=O)n3c(nc12)CCCCC3 | i | 1.1
CCc1ccc(-c2csc(NC(=O)c3cccnc3)n2)cc1 | i | 1.6
CC1=C(C(=O)NCc2ccccc2)C(c2cccs2)n2ncnc2N1 (stereo not given) | i | -1.9
Cc1nn(Cc2c(F)c(F)c(F)c(F)c2F)c(C)c1NC(=O)c1nn(C)c(C)c1Br | i | -1.9
COc1ccc(-n2cc(-c3ccccc3)c3c(NN4CCOCC4)ncnc32)cc1 | -5.6* | -1.2*
Cc1ccc(NC(=O)C2Cc3ccccc3CN2C(=O)c2ccccc2)cc1Cl (stereo not given) | -6.1* | 0.01*
CCOC(=O)c1nnc(-c2cccs2)nc1Oc1ccccc1C(=O)OC | i | -2.7
O=C(NNC(=S)NC(=O)c1cccs1)c1cccnc1 | i | -1.9
Cc1ccc(-c2nc(C(=O)O)cs2)cc1 | i | -0.1
CCCc1cc(C(=O)Nc2ccccc2C(=O)OC)no1 | i | 0.7
Cc1ccc(Nc2nnc(SCC(=O)Nc3ccccc3[N+](=O)[O-])s2)cc1 | i | 1.9
COCCn1c(=NC(=O)CSC(C)=O)sc2cc(F)ccc21 | i | 1.2
CCC(NC(=O)NCc1ccccc1)(C(F)(F)F)C(F)(F)F | i | -0.2
CCCCN(C(=O)CCNC(=O)NC12CC3CC(CC(C3)C1)C2)c1c(N)n(CCC)c(=O)[nH]c1=O | i | -0.58
COc1ccc2oc(C(=O)OCC(=O)N(Cc3ccccc3)C(C)C)c(C)c2c1 | i | 0.52
C#Cc1ccc(CN2CCCC(C(=O)Nc3ccccc3Oc3cccnc3)C2)cc1 (stereo not given) | i | -1.1
C/C(=N\Nc1ccc([N+](=O)[O-])cc1)c1ccc(O)cc1 | i | 0.95
CCOC(=O)c1sc(=S)n(-c2ccccc2Cl)c1SC | i | 0.5
COc1ccc(OC)c(CN2CCCC(CCC(=O)N(C)CCc3ccccn3)C2)c1 (stereo not given) | i | 0.08
COc1ccc2oc(C)c(C(=O)Cn3ccnc3)c2c1 | i | -1.3
CC(C)c1cc2c(c(O)c1O)[C@@]13CCCC(C)(C)C1CC2OC3=O (stereo not given in full) | i | 0.67
CCN(CC)c1ccc(-n2c(C)cc(C=O)c2C)cc1 | i | 2.2
COc1ccc(OC)c(-n2cc3c(=O)n(C)c(=O)n(C)c3c2)c1 | i | -0.09
COc1ccccc1C1CCN(C(=O)c2ccc(Cl)cc2)CC1 | i | -2
COc1cc(/C=C(/NC(=O)c2ccc(Cl)cc2Cl)C(=O)O)cc(OC)c1OC | i | 1.1
COc1cc([N+](=O)[O-])c(OC)cc1SCc1n[nH]c(=S)n1-c1ccc(C)cc1 | i | 0.35
O=C1C=C(NCc2ccncc2)CC(c2ccccc2)C1 (stereo not given) | i | -1.5
More records
SMILES | KCNQ2 block | KCNQ2 block baseline
Cc1ccc(OCc2nnc(SCc3nc4ccccc4[nH]3)n2Cc2ccco2)cc1 | i | 1
CCCNC(=O)c1ccccc1NC(=O)CN(c1ccccc1)S(=O)(=O)N(C)C | i | -1.8
C=C(C)CNC(=O)CCc1nnc(C2(c3ccc(Cl)cc3)CCC2)o1 | i | 0.45
O=C(O)C1CSC(c2ccccc2)N1C(=O)c1ccco1 (stereo not given) | i | 2.4
Cc1nnc(N/N=C/c2cccc(C(F)(F)F)c2)n1N | i | -0.82
Cn1c(N)c(C(=O)COC(=O)C2CCCN2C(=O)c2cccs2)c(=O)n(C)c1=O (stereo not given) | i | 2.7
Cc1ccc(C(C(=O)NC2CCCC2)N(Cc2cccs2)C(=O)CNC(=O)c2cccs2)o1 (stereo not given) | i | -0.54
O=C(c1cnn2ccccc12)N1CCN(C2CCCCC2)CC1 | i | -1.4
CC(=O)[C@@H]1[C@@H]2C(=O)N(Cc3ccccc3)C(=O)[C@@H]2C2c3ccccc3C=CN21 (stereo not given in full) | i | -2.6
CO/N=C/CC(=O)c1ccc(OC)cc1 | i | 0.26
CN1CCN(C2=Cc3ccccc3Sc3cc(F)ccc32)CC1 | i | -2
CC(C)=NNc1nc2c(c(=O)n(C)c(=O)n2C)n1CCc1ccccc1 | i | 0.02
O=C(CSc1nncs1)NCc1ccc2c(c1)OCO2 | i | -0.15
COc1ccc(-c2csc(N(CC3CCCO3)C(=O)c3ccccc3)n2)cc1 (stereo not given) | i | 0.15
O=C(CCC(=O)N1CCN(c2ccccn2)CC1)Nc1nnc(C(F)(F)F)s1 | i | 1.3
O=C(CSc1nc2[nH]ncc2c(=O)[nH]1)Nc1ccc(OC(F)(F)F)cc1 | i | -0.36
C/C(CC(=O)N(C(C)C)C(C)C)=N\NC(=O)COc1ccc(Cl)cc1Cl | i | -0.17
Cc1ccccc1Cn1c(=O)c2c(nc3n2CCCN3Cc2ccccc2)n(C)c1=O | i | -0.89
Cc1csc(NC(=O)CSc2ncnc3ccccc23)n1 | i | -1.2
Cn1nc(-c2ccccc2)c(CSc2ccccc2Cl)c1Cl | i | -0.98
COc1ccc(C(Nc2ccc(S(=O)(=O)NCC3CCCO3)cc2)C(=O)NC(C)(C)C)cc1OC (stereo not given) | i | 1.5
CC(=O)c1ccc(NC(=S)NCc2ccc(Cl)cc2Cl)cc1 | i | -1.9
O=C(CNC(=O)c1cccc(Br)c1)NCCc1nc2ccccc2[nH]1 | i | 0.63
CCCNC(=O)c1ccccc1NC(=O)c1ccc(CSc2ccccc2)cc1 | i | 0.01
CCCCc1cc(=O)oc2cc(OCC(=O)NCCN3CCOCC3)c(Cl)cc12 | i | -0.31
O=C(CNC(=O)c1ccc(F)cc1)N/N=C/c1cn[nH]c1-c1ccccc1 | i | -0.54
COc1ccc(OC)c(NC(=O)c2ccc3nc(-c4ccccc4)c(-c4ccccc4)nc3c2)c1 | i | -0.39
COc1ccccc1N1CCN(C(=O)COc2ccc(Cl)cc2)CC1 | i | 0.18
CCOC(=O)c1sc(NC(=O)c2c(OC)cccc2OC)nc1C | i | 0.88
CCCCn1c(N2CCC(Cc3ccccc3)CC2)nc2c1c(=O)[nH]c(=O)n2C | i | 1.4
O=C(C(=C1NCCN1)n1cncn1)c1ccccc1 | i | -0.96
O=c1cc2c(nn1Cc1ccc(Cl)cc1Cl)-c1ccccc1CC2 | i | -0.15
O=C(NCc1ccc(F)cc1)C1(S(=O)(=O)c2ccc(Cl)cc2)CC1 | i | -0.06
CC1CCN(C(=O)C2CCN(C(=O)c3ccc(C(C)(C)C)cc3)CC2)CC1 | i | 1.1
COc1ccc(CCN2C(=O)CC(N3CCN(S(=O)(=O)c4ccccc4)CC3)C2=O)cc1OC (stereo not given) | i | 0.07
COc1ccc(/C=C(\C#N)c2n[nH]c(Cn3cncn3)n2)cc1 | i | 3
O=C(CSc1ccccc1Cl)N1CCC(c2nc3ccccc3s2)CC1 | i | -0.63
Cc1ccc2nc(N3C(=O)C(O)=C(C(=O)c4ccco4)C3c3ccc(C)o3)sc2c1 (stereo not given) | i | 1.3
Cn1c(SCc2ccccc2F)nnc1-c1cnccn1 | i | -0.01
CCOC(=O)N1CCN(Cc2nc3cc(NC(=O)CC)ccc3n2C)CC1 | i | -0.27
Cc1ccc(Nc2nnc(SCC(=O)Nc3ncc(C(F)(F)F)cc3Cl)s2)cc1 | i | 0.78
Cc1cccc(C)c1NC(=O)Cn1nnnc1N | i | -0.89
N=c1c(C(=O)NCc2ccc(F)cc2)cc2c(=O)n3ccccc3nc2n1Cc1ccco1 | i | 2.9
CCN(CCNC(=O)C1CCCN(Cc2nc(-c3ccc(OC)cc3)oc2C)C1)c1ccccc1 (stereo not given) | -8.7* | 0.64*
Cc1nn(C)cc1S(=O)(=O)N1CCN(c2ccccc2)CC1 | i | 0.61
Cc1ccc(/C=C/C(=O)c2ccc(C)cc2)cc1 | i | 0.98
CN(C)Cc1ccccc1C(O)(c1ccccc1)c1ccccc1 | i | -2.7
CC(=O)N1CCCc2cc(S(=O)(=O)Nc3cccc(C)c3C)ccc21 | i | -0.3
CCOC(=O)N1CCC(N(CCN(C)C)C(=S)Nc2cc(Cl)cc(Cl)c2)CC1 | i | 1.7
CC(=O)c1c(C)nc(C)nc1NC(=O)C(C)C | i | -0.73
COc1ccccc1-c1nc2cc(Cl)ccc2c(=O)n1O | i | 0.1
Cc1cc(OC(=O)c2cc(Br)ccc2Cl)c([N+](=O)[O-])c(=O)[nH]1 | i | 0.6
N/C(=N\OC(=O)c1ccccc1Cl)c1cccnc1 | i | -1.1
CC(=O)NS(=O)(=O)c1ccc(NS(=O)(=O)c2ccc3ccccc3c2)cc1 | i | 1.3
Cc1ccc(-c2cc(C(=O)N3CCCCC3)c3ccccc3n2)cc1C | -9.3* | -1.3*
COC(=O)c1c(NC(=O)CN2CCN(C(=O)c3ccco3)CC2)c2cc(C)ccc2n1C | i | 0.31
CCOC(=O)C1(C)NC(c2ccco2)C2C(=O)N(CC)C(=O)C21 (stereo not given) | i | 2.8
COCCSc1nnc(NC(=O)Cc2ccccc2OC)s1 | i | -1
CCOC(=O)N1CCN(C(=O)c2ccc3c(SCC(=O)O)c4c(nc3c2)CCCC4)CC1 | i | -0.52
CCOCCCNC(=O)c1cccs1 | i | 0.9
NC(=S)N/N=C/c1ccc(-c2cc(Cl)ccc2Cl)o1 | i | -0.12
